p53 HeLa = nuclear p53 accumulation, HPV+ cells – imaging, p53-positive nuclei imaging, 24 h, 48 h (AID 1508601); p53-positive nuclei imaging, 48 h; hits give high values; some inactives read as strong as hits; p53-positive nuclei, normalised, % at 11 µM unless noted; actives 1% (n = 5,700);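 active means mean of two plates above 50% at 24 h or at 48 h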;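 further: HPV-positive HeLa cells with a fluorescent p53 stability reporter; 0% = vehicle and 100% = proteasome inhibitor control; doses worked out from stocks diluted about 900-fold with the highest of each compound shown; many of its hits are not listed in these tables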
p53 HeLa cells 24 h = also measured in p53 HeLa; calls as there; nuclei count, normalised, %; measured here: cell number at 24 h;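 100% = vehicle wells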
p53 HeLa p53 24 h = second read-out of p53 HeLa, no call of its own (marks repeat the call); p53-positive nuclei, normalised, %; measured here: p53 positive nuclei at 24 h;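 0% = vehicle and 100% = positive control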
p53 HeLa cells 48 h = second read-out of p53 HeLa, no call of its own (marks repeat the call); nuclei count, normalised, %; measured here: cell number at 48 h;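 100% = vehicle wells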
Active calls of the source: *; [ ] = another dose, or the depositor's remark.

nr	compound	p53 HeLa	p53 HeLa cells 24 h	p53 HeLa p53 24 h	p53 HeLa cells 48 h
1	NC(=O)C(c1ccccc1)(c1ccc(F)cc1)c1ccc(F)cc1	0.0	101.9	0.4	99.7
2	Cn1cc(C=C2C(=O)Nc3cccnc32)c2ccccc21	0.3	79.5	0.1	81.1
3	O=c1cc(-c2ccccc2)oc2c(O)c(O)ccc12	0.0	84.5	-0.1	76.4
4	O=c1cc(-c2cccc3c2Sc2ccccc2S3)oc(N2CCOCC2)c1	0.2	94.3	0.1	93.9
5	O=C(O)COc1c(C(=O)O)sc(-c2ccc(NC(=O)c3cccnc3)cc2)c1Br	-0.1	50.3	0.2	32.4
6	O=C(O)CCCC=CCC1C(O)CC(O)C1C=CC(O)COc1cccc(Cl)c1 (configuration not stated)	0.3	62.6	0.0	62.3
7	C=C[C@]1(C)CC(OC(=O)CSC(C)(C)CNC(=O)C(N)C(C)C)[C@@]2(C)C(C)CC[C@]3(CCC(=O)[C@H]32)C(C)C1O (some centres not stated)	-0.1[3.7 µM]	97.0	-0.1	91.8
8	COC(=O)c1ccc(C2c3[nH]c4ccccc4c3CC(C(=O)OC)N2C(=O)CCl)cc1 (configuration not stated)	0.7	38.6	0.7	23.5
9	Nc1ccn(C2OC(CO)C(O)C2F)c(=O)n1 (configuration not stated)	0.3	51.2	-0.1	41.5
10	COC(=O)c1sccc1NC(=O)Cc1cccs1	-0.1	83.6	0.0	88.6
11	COc1ccc(C(=O)N2CCN(C(=O)C=Cc3ccc(Br)cc3)CC2)cc1	0.0	109.2	-0.1	105.2
12	COc1ccccc1N1CCN(CC(O)COc2cccc3ccccc23)CC1 (configuration not stated)	-0.1[3.7 µM]	101.7	-0.2	101.9
13	N=C(N)c1ccc(N=NNc2ccc(C(=N)N)cc2)cc1 (tested in a mixture with another compound)	-0.1[3.7 µM]	118.3	-0.3	108.1
14	OCC(O)C(O)CO (configuration not stated)	0.1[3.7 µM]	109.4	-0.1	101.9
15	CCN1CCC(n2cc(CNc3cc(Cl)c4ncc(C#N)c(Nc5ccc(F)c(Cl)c5)c4c3)nn2)CC1	0.0	104.7	0.2	108.8
16	CCCCC(=O)N(Cc1ccc(-c2ccccc2-c2nn[nH]n2)cc1)[C@H](C(=O)O)C(C)C	-0.3[3.7 µM]	111.2	-0.5	101.3
17	CC1(C)CCC(CN2CCN(c3ccc(C(=O)NS(=O)(=O)c4ccc(NCC5CCOCC5)c([N+](=O)[O-])c4)c(Oc4cnc5[nH]ccc5c4)c3)CC2)=C(c2ccc(Cl)cc2)C1	-0.1	112.5	-0.1	107.4
18	COC(=O)CC(NC(=O)C(C)NC(=O)C(NC(=O)OCc1ccccc1)C(C)C)C(=O)CF (configuration not stated)	0.5[3.7 µM]	114.4	0.5	114.5
19	Nc1nc(F)nc2c1ncn2C1OC(COP(=O)(O)O)C(O)C1O (configuration not stated)	-0.6[3.7 µM]	101.7	-0.4	93.8
20	O=C(c1ccc(OCCN2CCCCC2)cc1)c1c(-c2ccc(O)cc2)sc2cc(O)ccc12	-0.4	94.4	-0.1	98.7
21	O=C(O)c1cc(C(F)(F)F)ccc1N1CCC(OCc2ccccn2)C1 (configuration not stated)	0.1	107.0	-0.1	101.9
22	O=C(NCCC1CC1)c1ccc(N2CCN(C(=O)c3cc(F)ccc3C(F)(F)F)CC2)nn1	-0.2	113.9	-0.1	115.7
23	N#Cc1c(O)c2c(-c3ccc(-c4ccccc4O)cc3)csc2[nH]c1=O	-0.1	97.4	0.0	104.2
24	CN1CCc2nc(C(=O)NC3CC(C(=O)N(C)C)CCC3NC(=O)C(=O)Nc3ccc(Cl)cn3)sc2C1 (configuration not stated)	0.2[3.7 µM]	105.9	-0.1	107.2
25	CCC(C)n1cc(C)c2c(C(=O)NCc3c(C)cc(C)[nH]c3=O)cc(-c3ccc(N4CCNCC4)nc3)cc21 (configuration not stated)	0.0	113.2	0.0	112.0
26	CN(NC(=O)CC(=O)NN(C)C(=S)c1ccccc1)C(=S)c1ccccc1	64.3*	54.4*	103.6*	43.1*
27	Cc1ccc(O)c(C(CCN(C(C)C)C(C)C)c2ccccc2)c1 (configuration not stated)	-0.2[3.7 µM]	111.2	-0.4	100.3
28	N#Cc1ccc2[nH]c(O)c(-c3ccc(CN4CCOCC4)cn3)c2c1	0.8[3.7 µM]	106.5	-0.1	98.6
29	O=c1ncccn1C1OC(CO)C(O)C1O (configuration not stated)	-0.2	81.5	-0.1	86.7
30	O=C(CCCS)NC1CCN(C(=O)COc2ccc(Cl)cc2Cl)CC1	-0.1[3.7 µM]	108.4	-0.3	102.8
31	Cc1cc2c(C(=O)NCC(C)c3ccccc3)c(O)c(O)cc2c(O)c1-c1c(C)cc2c(C(=O)NCC(C)c3ccccc3)c(O)c(O)cc2c1O (configuration not stated)	-0.1[3.7 µM]	64.5	-0.2	57.6
32	COc1cc2ncnc(Sc3nnc(C)s3)c2cc1OC	0.0[3.7 µM]	111.0	-0.3	108.6
33	Cc1ccccc1C(OCCN(C)C)c1ccccc1 (configuration not stated)	-0.2[3.7 µM]	76.9	-0.4	80.4
34	C#CCN(C)CCCOc1ccc(Cl)cc1Cl	0.0	105.6	0.1	100.0
35	O=C(Oc1nsnc1N1CCCCC1)N1CCOCC1	-0.1	96.6	-0.1	97.9
36	Cc1cc(F)c(Nc2ncnc3cc(OCc4ccccc4)ccc23)cc1O	-0.2[3.7 µM]	114.4	-0.5	112.8
37	Cc1cnc(-c2ccccc2C(C)C)nc1NCc1ccc(-n2ccnn2)cc1	0.0	76.3	0.2	81.2
38	O=C(Nc1ccc(Cl)cc1)c1cc(Cl)ccc1NS(=O)(=O)c1ccc(Cl)c([N+](=O)[O-])c1	0.0	98.9	0.2	114.5
39	CNC(CC(=O)O)C(=O)O (configuration not stated)	0.2[3.7 µM]	103.6	-0.3	104.6
40	CC1(C)SCCN(S(=O)(=O)c2ccc(Oc3ccncc3)cc2)C1C(=O)NO (configuration not stated)	0.0	110.7	0.1	111.1

By substructure, the entries above with a cyano group.
nr	compound	p53 HeLa	p53 HeLa cells 24 h	p53 HeLa p53 24 h	p53 HeLa cells 48 h
15	CCN1CCC(n2cc(CNc3cc(Cl)c4ncc(C#N)c(Nc5ccc(F)c(Cl)c5)c4c3)nn2)CC1	0.0	104.7	0.2	108.8
23	N#Cc1c(O)c2c(-c3ccc(-c4ccccc4O)cc3)csc2[nH]c1=O	-0.1	97.4	0.0	104.2
28	N#Cc1ccc2[nH]c(O)c(-c3ccc(CN4CCOCC4)cn3)c2c1	0.8[3.7 µM]	106.5	-0.1	98.6

(more compounds)
nr	compound	p53 HeLa	p53 HeLa cells 24 h	p53 HeLa p53 24 h	p53 HeLa cells 48 h
41	NC(=O)C(CCC(F)(F)F)N(Cc1ccc(-c2ncon2)cc1F)S(=O)(=O)c1ccc(Cl)cc1 (configuration not stated)	-0.6[3.7 µM]	117.7	-0.3	114.0
42	O=c1cc(-c2ccccc2)oc2c1ccc1ccccc12	-0.2	104.3	0.0	102.0
43	O=C(O)CCCCC(CCSCc1ccccc1)SCc1ccccc1 (configuration not stated)	-0.2	109.3	0.0	108.0
44	N#CC(=Cc1ccc(-c2cc(Cl)ccc2Cl)o1)C(=O)Nc1cccc2ncccc12	5.1	78.7	7.1	80.6
45	O=C(C=Cc1cccnc1)c1ccncc1	0.3	104.0	0.1	109.9
46	O=C(O)c1cc(O)c2ccccc2c1O	-0.1	102.4	-0.2	112.9
47	NC(=O)c1cnc(NC2CCCCC2N)nc1Nc1cccc(-n2nccn2)c1 (configuration not stated)	0.0	63.0	0.1	59.3
48	CNC(C)C(=O)NC1CN(C(=O)CC(C)C)CCC2CCC(C(=O)NC(c3ccccc3)c3ccccc3)N2C1=O (configuration not stated)	0.0	98.9	0.0	101.0
49	Cc1ccc(C(=O)N(CCCN)C(c2nc3cc(Cl)ccc3c(=O)n2Cc2ccccc2)C(C)C)cc1 (configuration not stated)	0.7	38.2	-0.1	25.5
50	C=CC(=O)Nc1cccc(Nc2nc(Nc3ccc(Oc4ccnc(C(=O)NC)c4)cc3)ncc2F)c1	0.0[3.7 µM]	101.1	-0.2	98.9

Just p53 HeLa cells 24 h and p53 HeLa p53 24 h (two entries from above):
item	SMILES	p53 HeLa cells 24 h	p53 HeLa p53 24 h
20	O=C(c1ccc(OCCN2CCCCC2)cc1)c1c(-c2ccc(O)cc2)sc2cc(O)ccc12	94.4	-0.1
21	O=C(O)c1cc(C(F)(F)F)ccc1N1CCC(OCc2ccccn2)C1 (configuration not stated)	107.0	-0.1

The listing continues:
nr	compound	p53 HeLa	p53 HeLa cells 24 h	p53 HeLa p53 24 h	p53 HeLa cells 48 h
51	CC(=O)NC(CC(C)C)C(=O)NC(CC(C)C)C(=O)NC(C=O)CCCN=C(N)N (configuration not stated)	-0.1	67.4	-0.1	72.9
52	O=C(O)c1cccc(Nc2ccc(C(F)(F)F)cc2)c1	0.1	107.6	0.0	108.8
53	O=c1c(-c2ccc(O)c(O)c2)coc2cc(O)ccc12	-0.1	112.5	-0.2	103.4
54	CN(C)C(=O)Nc1cccc(-c2ccc(N(C)C)cc2)c1	0.2	82.5	-0.1	85.9
55	O=C(NOCC1CC1)c1ccc(F)c(F)c1Nc1ccc(I)cc1Cl	0.0	104.2	-0.1	96.0
56	O=C(O)CCC1CCC(c2cc(F)ccc2F)(S(=O)(=O)c2ccc(Cl)cc2)CC1 (configuration not stated)	-0.2[3.7 µM]	103.4	-0.4	97.9
57	Nc1cc(F)ccc1NC(=O)C=Cc1cnn(CC=Cc2ccccc2)c1	0.3	112.7	0.1	94.7
58	O=C(NC1CCCc2ccccc21)c1ccc2c(c1)OCO2 (configuration not stated)	-0.2	103.3	-0.1	102.0
59	CC(C)c1cc(Oc2c(Cl)cc(-n3nc(C#N)c(=O)[nH]c3=O)cc2Cl)n[nH]c1=O	-0.2	88.3	-0.1	91.3
60	CCCC1CC(C(=O)NC(C(C)O)[C@@H]2OC(SC)C(O)C(O)C2O)N(C)C1 (some centres not stated)	-0.2[3.7 µM]	100.6	-0.3	101.8
61	COc1cc(C(=O)NC2CCN(C)CC2)ccc1Nc1ncc2c(n1)N(C1CCCC1)C(C)CC(=O)N2C (configuration not stated)	1.3	36.6	2.7	23.6
62	C[N+]1(C)[C@@H]2CC(OC(=O)C(CO)c3ccccc3)C[C@H]1[C@@H]1O[C@@H]12 (some centres not stated)	0.0[3.7 µM]	100.2	-0.2	101.3
63	CCCCc1ccc(O)cc1O	-0.1	114.9	-0.1	117.6
64	CCN(CC)Cc1ccc(C(=O)N(CCc2ccccc2OC)C2CCNC2)cc1 (configuration not stated)	0.0	112.0	-0.1	122.3
65	COC(=O)NC(C)CNc1nccc(-c2cn(C(C)C)nc2-c2cc(Cl)cc(NS(C)(=O)=O)c2F)n1 (configuration not stated)	-0.1	102.1	-0.1	108.7
66	CN(CC=CC#CC(C)(C)C)Cc1cccc2ccccc12	0.1	101.0	0.3	109.1
67	CCCCCc1ccc(C=CC(=O)Nc2ccccc2C(=O)O)cc1	-0.2	109.0	0.0	106.0
68	O=C(O)c1ccccc1Nc1cccc(C(F)(F)F)c1	0.0[3.7 µM]	113.2	-0.1	99.7
69	O=C(NN=Cc1ccc([N+](=O)[O-])o1)c1ccc(O)cc1	-0.1[3.7 µM]	107.7	-0.3	96.8
70	CC1OC(n2cc(F)c(=O)[nH]c2=O)C(O)C1O (configuration not stated)	-0.1[3.7 µM]	81.0	-0.1	71.8
71	Cc1ccc(S(=O)(=O)C=CC#N)cc1	7.0	62.2	8.0	55.8
72	COc1cc(C=CC(=O)CC(=O)C=Cc2ccc(O)c(OC)c2)ccc1O	-0.1	99.2	-0.2	104.1
73	Brc1ccc(C2CN3CCSC3=N2)cc1 (configuration not stated)	-0.1[3.7 µM]	109.9	-0.3	102.6
74	CNC(=O)c1ccc2c(C(=Nc3cccc(CN(C)C)c3)c3ccccc3)c(O)[nH]c2c1	-0.6[3.7 µM]	100.2	-0.2	103.0
75	NC(=O)c1ncn(C2OC(CO)C(O)C2O)c1N (configuration not stated)	0.3	110.7	-0.1	106.8
76	O=C(O)P(=O)(O)O	1.8[3.7 µM]	117.7	3.2	108.1
77	CCCN(CCC)S(=O)(=O)c1ccc(C(=O)O)cc1	-0.2	106.1	-0.1	104.3
78	C1N2CN3CN1CN(C2)C3	-0.2[3.7 µM]	84.7	-0.3	84.1
79	COC(=O)C(c1ccccc1Cl)N1CCc2sccc2C1 (configuration not stated)	-0.6[3.7 µM]	110.1	-0.3	103.1
80	COc1ccccc1Oc1c(NS(=O)(=O)c2ccc(C(C)(C)C)cc2)nc(-c2ncccn2)nc1OCCO	0.2	66.6	0.0	65.4
81	Cc1ccc(S(=O)(=O)OCC(=O)Nc2ccc(C(=O)O)c(O)c2)cc1	-0.5[3.7 µM]	104.7	-0.2	98.2
82	CCOc1ccc(Cc2cc(C3OC(CO)C(O)C(O)C3O)ccc2Cl)cc1 (configuration not stated)	0.2	103.8	0.2	106.6

Only part of the results is shown; the hit share may differ from the screen's.
